Compound activity deposited in PubChem by several laboratories.
Yeast UUG start: modulators of yeast start codon fidelity, primary screen, whole organism, S. cerevisiae, single point, plate reader. S. cerevisiae UUG-firefly luciferase reporter, luminescence/redox ratio. activity score, % at 18.7 µM. 350,000 tested, 0.13% active;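 active means replicate mean at a twofold rise or more, about +100% in these data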;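 further: firefly luciferase made from a UUG start codon reports start codon fidelity; reporter light over untreated wells divided by growth signal over untreated wells; some hits fall short of that in this replicate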
Rce1 inhib: yeast Rce1p protease inhibitors, primary screen, biochemical, fluorescence, cell-free homogeneous; AID 2563, 2010; calls only; 290,000 tested, 0.27% active; yeast membranes, quenched prenylated peptide cleavage fluorescence;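 active means fall in fluorescence gain of 50% or more versus controls, with final raw signal at or below 3038400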;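 further: plate controls were neutral control wells for no effect and wells lacking membranes for full effect; tested at 10 µM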
Target sequence (Q03530 whole entry, looked up): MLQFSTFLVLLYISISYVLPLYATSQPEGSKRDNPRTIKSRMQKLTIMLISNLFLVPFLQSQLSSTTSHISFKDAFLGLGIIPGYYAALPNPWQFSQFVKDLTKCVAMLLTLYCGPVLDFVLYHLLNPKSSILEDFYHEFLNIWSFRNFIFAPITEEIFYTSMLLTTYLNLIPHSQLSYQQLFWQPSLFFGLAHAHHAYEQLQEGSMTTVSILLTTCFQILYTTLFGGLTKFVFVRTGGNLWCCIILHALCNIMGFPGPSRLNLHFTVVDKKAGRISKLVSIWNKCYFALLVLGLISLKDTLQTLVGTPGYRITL
PABP FP inh: PABP poly(A) RNA binding inhibitors, primary screen, biochemical, fluorescence polarization, uHTS; Polyadenylate-binding protein 1 (Homo sapiens), P11940; inhibition, % at 35 µM; 290,000 tested, 1% active; AID 2014, 2009;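 active means 50% or more with normal probe brightness, or confirmed in later tests; about a fifth of its hits are not listed in these tables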;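 further: calls also rest on retests at 20 µM and on dose response follow-up; controls were probe without protein and protein plus probe with vehicle; some compounds called inactive have numbers as strong as hits; many hits fall short of the cut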
MT1-MMP act inh: blockers of MT1-MMP proenzyme processing, primary screen, HT1080 RFP-PRO-GFP cells, GFP/RFP fluorescence; GFP/RFP ratio fluorescence, overnight; percent of plate control window, DMSO zero; AID 651647, 2012; GFP/RFP ratio change, % at 20 µM; 360,000 tested, 0.061% active; Matrix metalloproteinase-14 (Homo sapiens), P50281;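 active means GFP/RFP ratio change of at least 30% with cell ATP level not reduced by more than half and red fluorescence within 50% of control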; further: strong numbers were not always called active
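Assay system: HT1080 RFP-PRO-GFP cells. Benchmarks: DMSO vehicle wells and RFP-L50D-GFP reporter cell wells. Times: overnight cell settling, then overnight compound exposure, 37 °C, 5% CO2. Compound: 20 µM single dose, 1% DMSO. Read-out basis: GFP/RFP fluorescence ratio.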
CSC inhib: cancer stem cell viability inhibitors, primary screen, luminescence | 300,000 tested, 1.1% active | cancer stem cell-like cells viability | inhibition, % at 7.5 µM;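 active means mean at 75% or more and at least half the replicates too; tested in HMLE shEcad cells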;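 further: 0% = median of negative and 100% = median of positive control wells; the first replicate is given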
Env fusion inh: inhibitors of HIV-1 Env-driven cell-cell fusion, primary screen, HeLa-JRFL effector, CEM21 target cells, luciferase; AID 651610, 2012; inhibition, % at 12.3 µM; 360,000 tested, 1.1% active;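 active means mean replicate inhibition score of at least 50 and every replicate individually at or above 50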;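 further: 0% = plate neutral controls and 100% = maraviroc near 300 nM; one replicate is shown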
eIF4H inh: human eIF4H binding inhibitors, primary screen, translation initiation inhibitor project, biochemical, uHTS, fluorescence polarization | Eukaryotic translation initiation factor 4H (Homo sapiens), Q15056 | eIF4H fluorescence polarization binding assay | inhibition, % at 35 µM | 290,000 tested, 0.94% active | AID 2012, 2009;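 active means 50% or more with normal probe brightness, or confirmed in later tests; about a fifth of its hits are not listed in these tables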;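 further: calls also rest on retests at 20 µM and on dose response follow-up; 0% = protein and probe with vehicle and 100% = probe without protein; strong numbers were not always called active; many hits fall short of the cut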
MT1-MMP act inh RFP: further read-out of MT1-MMP act inh, marked with its call; RFP signal change, %; measured here: RFP expression control read;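 0 = vehicle wells; hits needed this value within 50% of zero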
* marks the source's active call; other numbers are inactive results. The list is partial (hit frequency here may not be typical).

The first two entries (preview)
Cc1ccnc(NC(=O)c2cccc(S(=O)(=O)N3CCOCC3)c2)c1 was read as Yeast UUG start -6, Rce1 inhib inactive, MT1-MMP act inh 2, CSC inhib -9, Env fusion inh -11 and MT1-MMP act inh RFP 1.
Cc1csc(=O)n1CCC(=O)OCc1nnc(-c2ccc(Cl)cc2)o1 was read as Yeast UUG start -2, MT1-MMP act inh 0, Env fusion inh 12 and MT1-MMP act inh RFP -2.

The whole of this part, from the first entry:
Cc1ccnc(NC(=O)c2cccc(S(=O)(=O)N3CCOCC3)c2)c1 was read as Yeast UUG start -6, Rce1 inhib inactive, MT1-MMP act inh 2, CSC inhib -9, Env fusion inh -11 and MT1-MMP act inh RFP 1.
Cc1csc(=O)n1CCC(=O)OCc1nnc(-c2ccc(Cl)cc2)o1 was read as Yeast UUG start -2, MT1-MMP act inh 0, Env fusion inh 12 and MT1-MMP act inh RFP -2.
Screening CCN(CC(=O)NCc1cccs1)C(=O)c1ccc(S(=O)(=O)Nc2ccccc2)cc1 returned Yeast UUG start 3, Rce1 inhib inactive, MT1-MMP act inh -2, CSC inhib -2, Env fusion inh -2 and MT1-MMP act inh RFP -4.
`COc1ccc(/C=N/NC(=O)c2c(C)nc3ccc(Cl)cn23)cc1OC` gave Yeast UUG start -8, Rce1 inhib inactive, PABP FP inh -6, MT1-MMP act inh -3, CSC inhib 26, Env fusion inh 7, eIF4H inh 9 and MT1-MMP act inh RFP -5.
Screening O=C(CN1C2CCCC1CC(NC(=O)c1ccccc1)C2)Nc1nccs1 (stereo not given) returned Yeast UUG start -14, Rce1 inhib inactive, PABP FP inh -7, MT1-MMP act inh 5, Env fusion inh -3, eIF4H inh -2 and MT1-MMP act inh RFP 6.
`CCc1nc2ccc(C(=O)NCCCN3CCCC3=O)cn2c1N(CC)C(C)=O` gave Yeast UUG start -20, MT1-MMP act inh -3, Env fusion inh 6 and MT1-MMP act inh RFP 3.
Screening CCCCOc1ccc(CNC(=O)NS(=O)(=O)c2ccc(OCC(C)C)cc2)cc1 returned Yeast UUG start -18, Rce1 inhib inactive, PABP FP inh 12, MT1-MMP act inh 2, CSC inhib 4, Env fusion inh -63, eIF4H inh 0 and MT1-MMP act inh RFP 2.
For CCN1CCC(=NNC(=O)CC23CC4CC(CC(C4)C2)C3)CC1 the results were Yeast UUG start -15, Rce1 inhib inactive, PABP FP inh 19, MT1-MMP act inh 3, eIF4H inh -1 and MT1-MMP act inh RFP 6.
`O=C(CSc1nc(O)c(Cc2ccccc2)c(=O)[nH]1)Nc1nc2c(s1)CCCC2` gave Rce1 inhib inactive, PABP FP inh 6, MT1-MMP act inh 0, CSC inhib -13, Env fusion inh 25, eIF4H inh -2 and MT1-MMP act inh RFP 0.
For C[C@H](NC(=O)c1ccccc1)C(=O)OCC(=O)Nc1ccc2c(c1)OCO2 the results were Yeast UUG start 7, MT1-MMP act inh -4, Env fusion inh 3 and MT1-MMP act inh RFP -4.
For COc1cc(SC)ccc1C(=O)OCC(=O)NC1CCCCC1 the results were Yeast UUG start -11, Rce1 inhib inactive, PABP FP inh -4, MT1-MMP act inh 3, CSC inhib 4, Env fusion inh 10, eIF4H inh 1 and MT1-MMP act inh RFP 2.
Screening CC(CCc1ccccc1)NS(=O)(=O)c1ccc(Cl)c(C(=O)O)c1 (stereo not given) returned Yeast UUG start -16, PABP FP inh 17, MT1-MMP act inh 1, CSC inhib -11, Env fusion inh 6, eIF4H inh 5 and MT1-MMP act inh RFP 4.
Screening Oc1ccc(/C(Cc2ccc3ccccc3n2)=N\Nc2ccccc2)c(O)c1 returned Rce1 inhib inactive, PABP FP inh 16, MT1-MMP act inh -6, CSC inhib 44, Env fusion inh -7, eIF4H inh -3 and MT1-MMP act inh RFP 4.
Cc1nc(S(=O)(=O)N(C)Cc2ccccc2)c(C#N)c(C)c1Cl was read as Yeast UUG start -11, Rce1 inhib inactive, PABP FP inh -9, MT1-MMP act inh -2, CSC inhib 14, Env fusion inh 8, eIF4H inh -2 and MT1-MMP act inh RFP -1.
For CCOCCCNC(=O)CCN1C(=O)c2ccccc2Sc2ncccc21 the results were Yeast UUG start 6, Rce1 inhib inactive, PABP FP inh 3, MT1-MMP act inh 0, CSC inhib -8, Env fusion inh 3, eIF4H inh -1 and MT1-MMP act inh RFP 4.
Screening COc1cccc(C(=O)OCc2cc(=O)oc3c(C)c(C)ccc23)c1OC returned Yeast UUG start -2, Rce1 inhib inactive, PABP FP inh 10, MT1-MMP act inh -1, CSC inhib -8, Env fusion inh -2, eIF4H inh -3 and MT1-MMP act inh RFP -5.
Screening CN(CCc1ccccc1)C(=O)c1ccc(NC(=O)Cc2ccc(NC(=O)C3CCN(C(=O)C4CCC4)CC3)cc2)cc1 returned Yeast UUG start 4, MT1-MMP act inh -2, Env fusion inh -12 and MT1-MMP act inh RFP -11.
`O=C(/C=C/c1ccccc1)OCCN=C1NS(=O)(=O)c2ccccc21` gave Yeast UUG start -5, Rce1 inhib inactive, PABP FP inh 2, MT1-MMP act inh 0, CSC inhib 1, Env fusion inh -6, eIF4H inh -10 and MT1-MMP act inh RFP -6.
Cc1ccc(CNC(=O)CSCC(=O)O)cc1 was read as Yeast UUG start -9, Rce1 inhib inactive, PABP FP inh 1, MT1-MMP act inh 1, CSC inhib -34, Env fusion inh 7, eIF4H inh -8 and MT1-MMP act inh RFP 1.
O=C(NCCN1CCOCC1)c1ccc2c(c1)N(Cc1ccccc1)CCS2 was read as Yeast UUG start -18, Rce1 inhib inactive, PABP FP inh -11, MT1-MMP act inh 0, CSC inhib 24, Env fusion inh 1, eIF4H inh 6 and MT1-MMP act inh RFP 0.
Cc1ccccc1-c1nc(CS(=O)(=O)CC(=O)NCCc2ccccc2)c(C)o1 was read as Rce1 inhib inactive, PABP FP inh -1, MT1-MMP act inh 0, CSC inhib -5, Env fusion inh 9, eIF4H inh -14 and MT1-MMP act inh RFP -1.
Screening Cc1ccc2nc3c(cc(C(=O)NCC4CCCO4)c(=N)n3CC3CCCO3)c(=O)n2c1 (stereo not given) returned Yeast UUG start -12, Rce1 inhib inactive, PABP FP inh 7, MT1-MMP act inh -1, CSC inhib -9, eIF4H inh 15 and MT1-MMP act inh RFP 6.
CC(SCc1ccccc1)C(=O)N/N=C/c1cc2c(cc1Br)OCO2 (stereo not given) was read as Yeast UUG start -3, Rce1 inhib inactive, PABP FP inh 10, MT1-MMP act inh -8, CSC inhib -7, Env fusion inh 88*, eIF4H inh -8 and MT1-MMP act inh RFP -2.
Screening CC(=O)NNC1=Nc2ccccc2N(C)C(C)C1 (stereo not given) returned Rce1 inhib inactive, PABP FP inh 4, MT1-MMP act inh 5, CSC inhib -3, Env fusion inh -4, eIF4H inh -5 and MT1-MMP act inh RFP 9.
CCOC(=O)C1CCN(S(=O)(=O)c2ccc(Cl)s2)CC1 was read as Yeast UUG start -11, PABP FP inh 2, MT1-MMP act inh 0, CSC inhib -15, Env fusion inh 2, eIF4H inh -11 and MT1-MMP act inh RFP -1.
`Cc1cc2occ(CC(=O)Nc3nnc(C4CC4)s3)c2cc1C` gave Yeast UUG start -17, PABP FP inh -2, MT1-MMP act inh 0, eIF4H inh -13 and MT1-MMP act inh RFP 2.
CC(CN1C(C)CCCC1C)OC(=O)c1cccc(F)c1 (stereo not given) was read as Yeast UUG start -18, Rce1 inhib inactive, PABP FP inh -7, MT1-MMP act inh 0, CSC inhib -4, Env fusion inh 13, eIF4H inh -7 and MT1-MMP act inh RFP 3.
CC1Cc2ccccc2N1C(=O)COc1nc2ccccc2nc1N1CCOCC1 (stereo not given) was read as Yeast UUG start -7, Rce1 inhib inactive, PABP FP inh -14, MT1-MMP act inh -3, CSC inhib -8, eIF4H inh -4 and MT1-MMP act inh RFP -5.
C/C(=N\O)C(=O)NCCN1CCCCC1 was read as Rce1 inhib inactive, PABP FP inh -3, MT1-MMP act inh 2, CSC inhib -11, eIF4H inh -5 and MT1-MMP act inh RFP 6.
`CN1CCN(c2ccc(NC(=O)c3ccc(-c4ccc(Br)cc4)o3)cc2)CC1` gave Rce1 inhib inactive, PABP FP inh 0, MT1-MMP act inh -6, CSC inhib -15, Env fusion inh 11, eIF4H inh -14 and MT1-MMP act inh RFP -6.
`COc1ccc2[nH]c(=O)c(CN(Cc3ccc4c(c3)OCO4)C(C)=O)cc2c1` gave Yeast UUG start -6, Rce1 inhib inactive, PABP FP inh -2, MT1-MMP act inh 7, CSC inhib 7, eIF4H inh -2 and MT1-MMP act inh RFP 1.
`CSc1nncn1/N=C/c1ccc2c(c1)OCO2` gave Yeast UUG start -3, Rce1 inhib inactive, PABP FP inh 2, MT1-MMP act inh -1, CSC inhib -1, Env fusion inh -52, eIF4H inh -5 and MT1-MMP act inh RFP 3.
For COc1ccc(-c2cnc3c(NC(C)=O)cc(-c4ccc(C(=O)NC5CC5)cc4)cn23)cc1OC the results were Yeast UUG start -4, MT1-MMP act inh -8, Env fusion inh -3 and MT1-MMP act inh RFP -3.
COc1cccc(CNC(=O)Cc2ccc(-c3ccccc3)cc2)c1 was read as Yeast UUG start 6, Rce1 inhib inactive, PABP FP inh 10, MT1-MMP act inh -7, Env fusion inh -14, eIF4H inh 13 and MT1-MMP act inh RFP 0.
`CC(C)N=C1NN=C(c2cccs2)CS1` gave Rce1 inhib inactive, PABP FP inh -5, MT1-MMP act inh 0, CSC inhib 8, Env fusion inh -19, eIF4H inh -1 and MT1-MMP act inh RFP 1.
Cc1ccccc1C(=O)NNC(=O)c1ccc2nc[nH]c2c1 was read as Rce1 inhib inactive, MT1-MMP act inh 5, CSC inhib -5, Env fusion inh -3 and MT1-MMP act inh RFP 5.
Screening O=C(NC1CCN(C(=O)c2cccs2)CC1)c1ccccc1 returned Yeast UUG start -14, Rce1 inhib inactive, PABP FP inh 5, MT1-MMP act inh 1, CSC inhib -14, Env fusion inh 12, eIF4H inh 8 and MT1-MMP act inh RFP -1.
Screening O=c1ccn([C@@H]2O[C@H](CNCc3cccn3-c3nccs3)[C@@H](O)[C@H]2O)c(=O)[nH]1 returned Yeast UUG start 2, MT1-MMP act inh 3, Env fusion inh -13 and MT1-MMP act inh RFP 5.
For CCCC(CCC)=NNC(=O)c1ccccc1F the results were Rce1 inhib inactive, PABP FP inh 2, MT1-MMP act inh 2, CSC inhib 4, Env fusion inh -7, eIF4H inh 0 and MT1-MMP act inh RFP 4.
Screening O=C(NCCc1ccccc1)C1Cc2c(-c3ccc(Cl)cc3)ccnc2O1 (stereo not given) returned Yeast UUG start -1, MT1-MMP act inh 1, Env fusion inh 4 and MT1-MMP act inh RFP -4.
For CC(C)n1cnc2c(N(C)c3ccccc3)nc(N(CCN(C)C)Cc3ccccc3)nc21 the results were Yeast UUG start 4, Rce1 inhib inactive, PABP FP inh -8, MT1-MMP act inh -2, CSC inhib 5, Env fusion inh -36, eIF4H inh -8 and MT1-MMP act inh RFP -2.
CCOC(=O)N1CCN(C(=S)Nc2ccccc2C)CC1 was read as Yeast UUG start -17, Rce1 inhib inactive, PABP FP inh 9, MT1-MMP act inh 0, CSC inhib -5, Env fusion inh -1, eIF4H inh -3 and MT1-MMP act inh RFP 5.
Screening CC1(C)CC(=O)C2=C(C1)N(N1CCOCC1)C(N)=C(C#N)C2c1cccnc1 (stereo not given) returned Yeast UUG start 2, Rce1 inhib inactive, PABP FP inh 0, MT1-MMP act inh 4, CSC inhib -17, eIF4H inh 4 and MT1-MMP act inh RFP 3.
